# High-throughput results (PubChem BioAssay)
# VACV mCherry inh = inhibitors of vaccinia virus infection (mCherry reporter signal); Vaccinia virus mCherry reporter infection, fluorescence; about a quarter of the inactives have no number; Potency, µM (titrated, usually from 36.5 µM), for the others: at the highest dose activity change, negative = inhibition, usual class: inhibitors; 310,000 compounds, 0.63% hits; AID 720579; active = well fitted inhibition curve with a large enough effect; inconclusive = small, poorly fitted or top-dose-only effect; inactive = no such curve, though single readings can be large or run the other way; tested in A549 cells; also: nearly all actives have a fitted effect of over 35% in size; inactives centre near -10
# VACV Venus inh = inhibitors of vaccinia virus (Venus reporter); Vaccinia virus Venus reporter expression, fluorescence; Potency, µM (top dose mostly 36.5 µM), without a hit: at the highest dose activity change, negative = inhibition, actives largely listed as inhibitors; 330,000 compounds, 0.46% hits; active means well fitted inhibition curve with a large enough effect; inconclusive means small, poorly fitted or top-dose-only effect; inactive means no such curve, though single readings can be large or run the other way; tested in A549 cells; also: nearly all actives have a fitted effect of over 30% in size; inactives centre near -10
# * hit, by the source's call; i = inactive; ? = inconclusive; . = no result given; & = joins results of further samples; [ ] = another dose, or the depositor's remark. % is scaled to controls: 0 for no effect and ±100 for the full control effect; potency is read from the fitted curve at half-maximal effect.
Compound | VACV mCherry inh | VACV Venus inh
CCc1cnc2ccccc2c1/C=C/c1ccc(N(C)C)cc1 | -5% | -18%
COc1ccc(/C=C2\SC(=O)N(CCn3cnnn3)C2=O)cc1 | ? | -8%
O=C(Nc1nnc(-c2ccc(Cl)s2)o1)C1CC1 | i | -4%
O=P(O)(c1ccccc1)c1ccccc1O | -5% | -12%
CCOc1cc(C2NC(=O)N(C)C(C)=C2C(=O)OC)cc(Br)c1O (centres undefined) | -22% | -6%
CCCNC(=O)C1(C)CCCN(Cc2ccc(-c3ccccn3)cc2)C1 (centres undefined) | 9% | -1%
O=C1NC(=S)SC1=Cc1cccs1 | -11% | 7%
Cn1cnc([N+](=O)[O-])c1Sc1ncnc2nc[nH]c12 | -8% | -6%[7.34 µM]
COC(=O)Cn1cc(C(=O)OC)cc(Br)c1=O | . | -7%
CS(=O)(=O)N1CCN(c2ccc(NC(=O)C(c3ccccc3)c3ccccc3)cc2)CC1 | -5% | -16%
CN1CCN(C2CN(Cc3ccccc3)S(=O)(=O)C2)CC1 (centres undefined) | 11% | -6%
CN(Cc1cccnc1)C(=O)c1ccc(Cl)c(NS(=O)(=O)c2ccc(F)cc2)c1 | i | -7%
COc1ccc(CNC(=O)c2ccc(N3CCC4(CC3)CC(c3ccc(Cl)cc3)=NO4)c([N+](=O)[O-])c2)cc1 | -1% | -21%
C=CCCC(=O)N1C[C@H]2CCN(C)[C@H]2C[C@H]1c1ccccc1 | 19% | -1%
Cc1oc(C(C)(C)C)cc1-c1cc(NC(=O)c2ccc([N+](=O)[O-])cc2)n[nH]1 | -15%[7.34 µM] | -6%[7.34 µM]
CC(C)(C)c1ccc(C(=O)N2CCC2(C)C(=O)Nc2cccc(C#N)c2)cc1 (centres undefined) | 14% | -13%
Cc1ccc(-n2c(=O)c3sccc3n(CC(=O)NC3CCCCC3)c2=O)cc1 | -9% | -11%
O=C(/C=C/c1ccc(Cl)c(C(F)(F)F)c1)N1CCN(c2ccccn2)CC1 | 7% | -3%
Cc1c(-c2cccc(NC(=O)Nc3ccccc3)c2)nc2ncccn12 | -9% | -6%
COc1ccc(N(C(=O)c2ccncc2)S(=O)(=O)c2cccc([N+](=O)[O-])c2)cc1 | ? | -12%
Cc1cc(NC(=O)CCCSc2nc(-c3ccco3)cc(C(F)(F)F)n2)n(-c2ccccc2)n1 | -17% | -25%
CCOC(=O)C1=C(C)Nc2ccc(C)cc2S1 | 0% | -2%
O=C(NC(=S)NCCCN1CCOCC1)c1ccc(Br)cc1 | i | -10%
C=CCn1c(SCC(=O)N2CCN(C(=O)c3ccco3)CC2)nc2sc(CC)cc2c1=O | -30% | -23%
COc1ccc(OC)c(S(=O)(=O)Nc2cccc(-c3ccc(N4CCCCCC4)nn3)c2)c1 | -25% | -24%
CCOC(=O)N1CCN(C(=O)C2CCC(=O)N(Cc3ccccc3OC)C2)CC1 (centres undefined) | -14% | -6%
Cc1c(C(=O)NC2CCN(Cc3ccccc3)C2)oc2c(Cl)cccc12 (centres undefined) | ? | -10%
CC(C)C[C@H]1CNC(=O)C(=O)N1C[C@@H]1CCCN1C[C@H](Cc1ccc(O)cc1)N1C[C@H](Cc2ccccc2)N(CC2CCCCCC2)C(=O)C1=O | -11% | -17%
Cc1ccc(C(=O)O/N=C(\N)c2ccccn2)cc1 | -1% | 7%
Cc1cccc(OCC(=O)NNC(=O)CCc2ccccc2)c1 | 0% | -3%
Cc1c(NC(=O)c2cc(-c3ccc(O)cc3)on2)c(=O)n(-c2ccccc2)n1C | -6%&-5% | -14%&-7%
Cc1oc2c(c1C(=O)c1ccccc1)C(=O)C(=O)c1ccccc1-2 | . | ?
O=S(=O)(NCCC1=CCCCC1)c1cccc(S(=O)(=O)N2CCOCC2)c1 | -5% | -21%
O=C(CSc1nnc(-c2ccc(Cl)cc2)c(-c2ccc(Cl)cc2)n1)NC1CCCC1 | -8% | -12%
CCCCn1c(N)c(N(CCC(C)C)C(=O)C2CC(=O)N(c3cccc(SC)c3)C2)c(=O)[nH]c1=O (centres undefined) | i | -11%
CCCCC(=O)Nc1ccc(NC(=S)NC(=O)c2ccco2)cc1OC | i | 6%
CCCOc1ccc(OCCN2CCCC(C)C2)cc1 (centres undefined) | -19% | 0%
CCOC(=O)c1ccc(N=Nc2c(C)c(C#N)c(O)[nH]c2=O)cc1 | -2% | -4%
COc1ccccc1Nc1ncnc2scc(-c3ccc(F)cc3)c12 | 2% | -1%
CN(C)CCNc1ccc2ncn3c4ccc(O)cc4c(=O)c1c23 | 0.79µM* | 1.1µM*
CCOC(=O)C1CCCN(C(=O)c2ccc3c(c2)N(Cc2ccccc2F)C(=O)c2ccccc2S3=O)C1 (centres undefined) | -1% | 2%
Cc1cccc(CNc2ncncc2-c2cccc(C#N)c2)c1 | -14% | -13%
Cc1ccc2c(CC(=O)NCC(C)(C)N3CCOCC3)coc2c1 | -18% | -5%
CCCn1c(Nc2ccccc2C)nc2ccccc21 | -1% | -20%
Cc1ccc(S(=O)(=O)N2CCCN(c3nccc(C(F)(F)F)n3)CC2)cc1 | -14% | 2%
Cc1ccccc1N1C(=O)CN(Cc2sccc2C)C1=S | -12% | -8%
CCCCNC(=O)N1CCC(CCC(=O)N(C)Cc2ccccc2)CC1 | -10% | -4%
O=C1Nc2cc(C(=O)N3CCC4(CC3)OCCO4)ccc2S/C1=C\c1ccccc1 | -23% | -12%
CC1=C(C(=O)OC(C)C)C(c2cccnc2)C2=C(CCCC2=O)N1 (centres undefined) | -13% | -19%
Cc1cc(Cl)ccc1OCC(=O)NCCOC(=O)Nc1sc(=S)n(C)c1C | -5% | 0%
Cc1ccc(S(=O)(=O)N2CCOCC2)cc1NC(=O)CN(C)CC(=O)Nc1cccc(F)c1 | -3% | -16%
CC(C)Cn1cc(NC(=O)NCc2cccc(Cl)c2)c2ccccc2c1=O | 3% | 7%
Cc1oc(C)c2c(=O)cc(-c3ccc4c(c3)OCO4)cc(OC(=O)c3ccccc3Br)c12 | -9% | 25%
C/C(=N\NC(=O)c1ccc2c(c1)OCO2)c1ccco1 | -3% | 0%
COCCNCc1ccccc1[N+](=O)[O-] | i | -4%
COc1cc2sc3ccc(-c4ccc5[nH]ccc5c4)cc3c(=O)c2cc1OC | -16% | -23%
CC(C)(C)c1ccc(OC(=O)c2ccc3snnc3c2)cc1 | -14% | -10%
O=C(COC(=O)c1ccccc1[N+](=O)[O-])c1ccc2c(c1)OCO2 | -16% | -10%
Cc1cccc(/C=C(\C#N)c2nc3ccccc3c(=O)[nH]2)c1 | -12% | -6%
CCc1noc(C)c1C(=O)Nc1nnc(C(CC)CC)s1 | i | -20%

# Continued.
Compound | VACV mCherry inh | VACV Venus inh
Cc1cccc(NC(=S)N2CCN(S(=O)(=O)c3ccccc3)CC2)c1 | ? | -14%
Cc1ccc(Cn2c(N/N=C/c3ccncc3)nc3c2c(=O)n(C)c(=O)n3C)cc1 | -17% | -10%
Cc1onc(-c2ccccc2)c1C(=O)NNC(=S)NC(=O)c1ccc(Cl)cc1Cl | -7% | -18%
COc1ccc(OC)c(NC(=O)CCN2CCC(C)CC2)c1 | i | -3%
CC(C)CCNC(=O)CCSCCC(=O)NCCC(C)C | -3% | -6%
Cc1cccc(C)c1NC(=S)N(Cc1cccnc1)Cc1ccccc1Cl | -7% | -8%
Cc1cccc(C)c1-n1nnnc1C(c1ccnc2ccccc12)N1CCN(C(=O)OCc2ccccc2)CC1 (centres undefined) | -15% | -13%
Cc1cc(C)c(S(=O)(=O)Nc2ccc3oc(C)c(C(=O)OC(C)C)c3c2)cc1C | -24% | -2%
CCOC(=O)c1ccc(NC(=O)c2cnn(-c3ccc(C)cc3C)c2C2CCN(C(=O)OC(C)(C)C)CC2)cc1 | -13% | -7%
Cc1cc(C2=NNC(=NCCc3ccccc3)SC2)c(C)n1-c1c(C)n(C)n(-c2ccccc2)c1=O | -3% | 8%
COc1ccc(-c2nnn(CC(=O)c3ccccc3)n2)cc1OC | i | -6%
CCn1c(-c2ccccc2F)nc2cc(NC(C)=O)cc(C(=O)N(C)Cc3ccc4nccnc4c3)c21 | -13% | -12%
CC(=O)OC1(c2ccccc2)CCN(C)C(C)C1C (centres undefined) | . | -8%
CCCNC(=O)COC(=O)/C(C#N)=C/c1cc(C)n(CCC)c1C | -11% | -14%
COc1cc(CCCN2C(N)=NC[C@@H]2Cc2ccc(O)cc2)cc(OC)c1OC | -9% | -6%
CSc1ccccc1C(=O)Nc1cccc(C(C)O)c1 (centres undefined) | i | -7%
CSCC[C@H](N)C(=O)N1CCC(C(=O)N[C@H](C)C(=O)Nc2ccc(C(C)C)cc2)CC1 | -19% | -9%
COc1ccc(C(=O)c2c[nH]c(C(=O)NCC3CCCO3)c2)cc1 (centres undefined) | . | -8%
COc1cccc(NC(=O)CSc2nnc(-c3cccs3)o2)c1 | -9%[7.34 µM] | -4%[7.34 µM]
O=C(CCNC(=O)c1ccc(Br)cc1)Nc1ccccc1N1CCCC1 | 0% | -2%
CCn1c(SCc2cc(=O)n3ccsc3n2)nc2ccccc21 | i | -11%
CC(C)CCOc1ccc(C(=O)Nc2cc(S(=O)(=O)N3CCOCC3)ccc2N2CCOCC2)cc1 | -1% | -23%
COc1ccccc1CNC(=O)c1ccc(NC2=NC3CS(=O)(=O)CC3S2)cc1 (centres undefined) | -3%[7.34 µM] | 4%[7.34 µM]
CC(C)c1nnc(NC(=O)COc2ccc3c(c2)OCO3)s1 | -10% | -3%
CCn1cnc2sc(C(=O)N3CCN(c4ccc(OC)cc4)CC3)c(C)c2c1=O | -20% | -8%
Cn1c(=O)cc(SCC(=O)NCc2ccc(F)cc2)c2cc(Cl)ccc21 | -5% | -25%
CCOc1ccc(C(=O)c2cn(CC(=O)Nc3ccc(C)c(C)c3)c3ccc(OCC)cc3c2=O)cc1 | -13% | -11%
CC(=O)/C=C(/C)NC(Cc1c[nH]c2ccccc12)C(=O)O (centres undefined) | i | -6%&-20%
Cc1ccc(-n2c(=O)[nH]c3ccccc3c2=O)cc1[N+](=O)[O-] | -11% | -10%
COc1ccc(CN(C(=O)Nc2cccc(Cl)c2)c2ccccn2)cc1OC | -14% | -5%
COc1ccc(OC)c(N2C(=O)CC(Cc3ccc(Cl)cc3)C2=O)c1 (centres undefined) | -23% | -19%
COc1ccc(NC(=O)c2ccc(CNS(=O)(=O)c3cccc(OC)c3)cc2)cc1 | . | ?
CS(=O)(=O)N(CC(=O)NCCSc1ccc(Cl)cc1)c1ccc2c(c1)OCO2 | . | -12%
CC(C)(C)OC(=O)N(Cc1ccccc1)Cc1ccc(OCc2cccc(NC(=O)C3CC3)c2)cc1 | ? | ?
CCOC(=O)c1c(-c2ccc(F)cc2)csc1NC(=O)CCN1C(=O)c2ccccc2C1=O | -19% | 2%
CCCCC(CC)CNC(=O)c1ccc2c(c1)OCO2 (centres undefined) | i | -8%
O=C(N/N=C/c1ccc(N2CCOCC2)cc1)c1cccs1 | -21% | -3%
CC(=O)N(C)c1ccc(NC(=O)c2ccc([N+](=O)[O-])cc2Cl)cc1 | -17% | -15%
Nc1nnnn1N=C1CCCCC1 | -10%[1.46 µM] | -10%
COC(=O)[C@@]1(Cc2ccc(F)cc2)[C@H]2c3cc(C(=O)N(C)C)n(Cc4ccc(C)c(F)c4F)c3C[C@H]2CN1C(=O)c1ccccc1 | ? | ?
Cn1c(-c2ccc(C#N)cc2)c(C#Cc2ccccc2)c2ccccc21 | i | -8%
CC(Sc1nncs1)C(=O)Nc1ccc(Cl)cn1 (centres undefined) | -10% | -14%
O=[N+]([O-])c1cccc(Cl)c1N1CCOCC1 | -1% | -8%
Cc1ccc(-n2c(=O)c3oc4ccccc4c3n(CC(=O)Nc3ccccc3)c2=O)cc1C | i | -11%
COc1cc(C2C(C#N)=C(C)NC3=C2C(=O)c2ccccc23)cc(OC)c1OC (centres undefined) | ? | ?

# Molecules listed so far that contain a CF3 group:
Compound | VACV mCherry inh | VACV Venus inh
O=C(/C=C/c1ccc(Cl)c(C(F)(F)F)c1)N1CCN(c2ccccn2)CC1 | 7% | -3%
Cc1cc(NC(=O)CCCSc2nc(-c3ccco3)cc(C(F)(F)F)n2)n(-c2ccccc2)n1 | -17% | -25%
Cc1ccc(S(=O)(=O)N2CCCN(c3nccc(C(F)(F)F)n3)CC2)cc1 | -14% | 2%

# New compounds follow:
Compound | VACV mCherry inh | VACV Venus inh
CCS(=O)(=O)N1CCC2(CC1)OCCN2S(=O)(=O)c1ccc(OC)cc1 | -8% | -5%
CCCCCCn1nnc2sc(-c3ccccc3)cc2c1=O | 2% | -3%
COCCCNC(=O)CNC(=O)c1nn(-c2ccc(OC)cc2)c(=O)c2ccccc12 | i | -6%
CC(Sc1n[nH]c(N)n1)C(=O)Nc1cccc2ccccc12 (centres undefined) | -23% | -19%
O=C(O)c1c2c(nc3ccc(Cl)cc13)CCC2 | -15% | 1%
Cc1ccc(-c2ccc(/C=N/n3cnnc3)o2)cc1Cl | -17% | -5%
Clc1ccc(-c2cc(CN3CCCCC3)no2)cc1Cl | ? | -4%
Cc1cccc(OCC(=O)Nc2ccc3c(C)cc(=O)oc3c2)c1 | i | -11%
CCN(CC(=O)Nc1c(F)cccc1F)C(=O)C1CCN(C(=O)Nc2ccccc2)CC1 | -8% | -17%
